A1 inh – inhibitors of the anti-apoptotic protein A1, read as caspase activation | caspase activation, % (no concentration beside the values) | MEF A1-2A-BIM cells, Caspase-Glo 3/7 luminescence, 3 h; percent of clofoctol response, vehicle zero | AID 2462 | 0.066% of 330,000 active;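 active = over half of replicate activation scores above 10%, or exactly half above 10 with the replicate mean above 10; inconclusive = replicate mean below 10 yet half the replicates above 10; inactive = over half of replicates below 10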;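 note: wells of about 30 µL received 50 nL stock; many hits fall short of the cut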
LANA-H2A inh – blocks KSHV LANA binding to histone H2A/H2B | Q9QR71 | cell-free LANA-H2A/H2B peptide, fluorescence polarization | inhibition, % (no concentration beside the values) | 0.6% of 320,000 active | AID 2629; in the data active = inhibition mostly above about 10%, no sharp cut-off; inactive = mostly below about 6.7%;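 note: stock transfer was 7.5 nL into about 10 µL; 0% = median of vehicle wells and 100% = median of positive control wells; one replicate is shown; the record names a cut of 25% in any replicate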
RanGTP-Impb inh – disruptors of Ran-importin-beta complex formation – biochemical, FRET, CFP-Ran, YFP-importin-beta, homogeneous, primary screen | cell-free CFP-Ran/YFP-importin-beta FRET ratio | inhibition, % (concentration not given with the values) | 1.1% of 300,000 active | AID 2216;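 active = most replicates above 15%; inconclusive = exactly half above 15%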;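 note: 0% = DMSO wells and 100% = Ran loaded with GDP instead of GTP; wells of about 40 µL received 100 nL stock; the first replicate is given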
Calb FLC – affects C. albicans growth with fluconazole | C. albicans CaCi-2 (fluconazole-resistant clinical isolate) + fluconazole, Alamar Blue growth, 48 h | growth inhibition, % (test concentration not listed) | 0.57% of 300,000 active | AID 1979;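 active = most replicates above 75%; inconclusive = exactly half above 75%; inactive = most below 75%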;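 note: all wells also contain fluconazole at 8 µg/ml as a sub-toxic cotreatment; 0% = median of DMSO wells and 100% = median of geldanamycin control wells; wells of about 8 µL received 7.5 nL stock; the first replicate is given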
UCH37 DUB inh – inhibitors of human deubiquitinating enzyme UCH37 | purified proteasome/UCH37, Ub-AMC cleavage fluorescence | inhibition, % (concentration not given with the values) | 0.33% of 330,000 active;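 active = mean of two replicates above 20%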;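 note: 0% = compound-free wells with enzyme and 100% = wells lacking proteasome; stock transfer was 100 nL into about 20 µL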
Target sequence (Q9Y5K5 whole entry, looked up): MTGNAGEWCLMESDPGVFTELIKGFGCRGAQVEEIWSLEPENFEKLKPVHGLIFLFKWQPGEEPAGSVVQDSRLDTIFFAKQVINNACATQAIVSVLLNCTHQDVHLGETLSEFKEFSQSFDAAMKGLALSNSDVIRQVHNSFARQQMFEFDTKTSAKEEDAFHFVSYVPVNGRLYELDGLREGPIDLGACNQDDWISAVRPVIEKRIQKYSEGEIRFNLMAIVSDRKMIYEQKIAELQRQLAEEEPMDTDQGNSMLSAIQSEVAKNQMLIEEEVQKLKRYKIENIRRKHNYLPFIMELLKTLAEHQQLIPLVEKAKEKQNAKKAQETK
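Material: human UCH37 enzyme supplied as purified proteasome complex. Measure: % inhibition of Ub-AMC cleavage fluorescence. Medium: pH 7.4 Tris-HCl (50 mM) with ovalbumin, ATP-MgCl2, DTT. Times: 30 min preincubation with enzyme, 25 min cleavage at room temperature. Detection: AMC fluorescence intensity at 355/460 nm.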
T cruzi inh – blocks replication of Trypanosoma cruzi; 1.4% of 300,000 active; AID 1885; inhibition, % (no concentration beside the values); T. cruzi beta-gal in NIH3T3, luminescence, 90 h;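 active = mean inhibition across valid replicates above about 55%, limit read from the data; inconclusive = mean below that limit but half or more replicates reach it; inactive = mean below it, under half of replicates reach it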;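 note: signal also drops with host cell toxicity which is not excluded here; 0% = plate median of DMSO wells and 100% = zero luminescence signal; higher percent means less beta-gal luminescence so fewer parasites; stock transfer was 50 nL into about 50 µL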
Beta2AR agonist – human beta-2 adrenergic receptor agonism by FAP. P07550. Am2.2-beta2AR cells, FAP receptor internalization, flow cytometry; reference of the scale not given here. response, % (concentration not given with the values). 0.43% of 340,000 active;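 active = response above a set limit, near 3 SD of response in nonfluorescent compounds, cut at about 42% in these data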;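 note: stock transfer was 100 nL into about 11 µL; a reference agonist was the positive control; negative values mostly stem from fluorescent compounds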
Target sequence (P07550 whole entry, looked up): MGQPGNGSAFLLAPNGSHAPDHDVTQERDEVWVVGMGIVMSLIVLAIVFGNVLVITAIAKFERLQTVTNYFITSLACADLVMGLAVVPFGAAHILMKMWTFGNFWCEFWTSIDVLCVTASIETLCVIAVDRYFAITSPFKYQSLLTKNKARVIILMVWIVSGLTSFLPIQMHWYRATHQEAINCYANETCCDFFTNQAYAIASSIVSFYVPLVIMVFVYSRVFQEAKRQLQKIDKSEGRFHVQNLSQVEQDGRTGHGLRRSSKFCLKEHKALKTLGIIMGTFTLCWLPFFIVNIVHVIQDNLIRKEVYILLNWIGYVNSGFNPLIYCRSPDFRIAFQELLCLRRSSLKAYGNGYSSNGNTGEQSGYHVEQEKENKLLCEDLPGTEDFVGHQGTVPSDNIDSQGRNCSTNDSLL
Beta cell apopt – blocks beta cell apoptosis. INS-1E cytokine-induced death, ATP luminescence, 48 h; percent of positive-control rescue, neutral wells zero. protection from apoptosis, % (no concentration beside the values). 0.8% of 300,000 active. AID 435005;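 active = all replicates at 75% or more, or half of them and the mean; inconclusive = half reach 75% but not the mean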;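 note: 0% = cytokine-treated negative control wells and 100% = positive control rescue; higher means more ATP so stronger rescue from cytokine killing; wells of about 40 µL received 100 nL stock; the first replicate is given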
Starred values were filed as active, the others as inactive; u = inconclusive; x = no result given.

SMILES	A1 inh	LANA-H2A inh	RanGTP-Impb inh	Calb FLC	UCH37 DUB inh	T cruzi inh	Beta2AR agonist	Beta cell apopt
Cc1ccc(C)c(OCc2ccc(C(=O)N3N=C(C(F)F)CC3(O)C(F)F)o2)c1 (configuration not stated)	0.3	0.7	-3.6	-8	4.1	19	0	8
CCc1nnc(SCc2ccc(OC(C)C)cc2)n1N	-0.2	-3.3	5.1	u	5.2	-10	0	1
COc1ccccc1C(=O)Nc1ccnn1C1CCN(C(=O)C2CCOC2)CC1 (configuration not stated)	-0.5	-1.9	0.8	20	6.3	-9	2	-10
COc1cccc(CSc2nc3cc4c(cc3cc2C)OCCO4)c1	1.1	0.5	3.9	-1	-2.2	-43	-6	15
COc1ccc(OC)c(NC(=O)COC(=O)CNC(=O)c2ccc(OC)c(OC)c2)c1	1.8	0.8	1.5	10	1.7	-15	3	0
CC(C)=CCN1CCN(Cc2ccoc2)CC1CCO (configuration not stated)	-0.4	-1.5	-2.1	-43	3.4	-14	-3	2
O=C(NCCCn1ccnc1)c1ccc(-c2cccc(Cl)c2Cl)o1	-0.5	-1.8	x	x	6.1	x	6	11
O=c1c2ccccc2nnn1COc1ccc(Cl)cc1Br	-1.5	x	1.9	-4	-1.2	11	-5	-3
COc1ccc(NC(=O)Cn2c(CCC(=O)O)ccc2-c2ccccc2)cc1	1.0	-7.3	-1.0	-4	1.4	-4	11	2
O=S(=O)(Nc1nnc(C2CCCCC2)s1)c1ccc(F)cc1	0.4	-2.8	0.3	50	4.6	18	-6	-3
Cc1cccc(CS(=O)(=O)c2ncc(Cl)c(C(=O)NCc3ccccc3)n2)c1	0.9	-1.5	u	-13	2.4	-12	0	-21
O=C(c1ccoc1)N1CCCC(Nc2ccc(F)c(F)c2)C1 (configuration not stated)	0.1	-1.6	-2.6	-5	4.0	12	-11	-7
CCC(C)(C)NC(=O)C(c1ccc(OC)cc1)N(C(=O)CCC(=O)Nc1cc(C)on1)C(C)(C)C (configuration not stated)	0.1	0.3	-1.0	-6	-1.1	13	-13	-4
COC(=O)c1ccc(-n2c(C)cc(C(=O)CCl)c2C)cc1	1.4	2.8	2.4	-32	8.9	52	29	5
COc1ccc(C(=O)NC2=NCCS2)cc1S(=O)(=O)N1CCCCC1C (configuration not stated)	-0.2	-3.3	0.1	-21	1.4	-11	1	-2
Cc1ccc(NC(=O)CSc2nc3ccccc3c(=O)[nH]2)cc1[N+](=O)[O-]	-0.4	1.6	x	x	3.7	x	2	-8
Cc1ccc(N2C(=O)N3[C@H](c4ccc(Br)cc4)[C@@H]4C(=O)N(C(C)(C)C)C(=O)[C@@H]4[C@]3(C)C2=O)cc1	1.5	3.8	-0.3	13	5.3	7	-2	1
CCOc1ccc(NC(=O)CN(C)CC(=O)Nc2ccc(F)c(F)c2F)cc1OCC	0.5	-3.0	2.6	-37	1.6	2	-1	-3
CC(C(=O)N1CCCC1)N1CCN(c2ccccc2O)CC1 (configuration not stated)	-0.2	x	-1.4	33	2.8	-16	6	-1
CC(C(=O)N1CCc2ccccc21)N(C)CC(=O)Nc1cccc(F)c1 (configuration not stated)	0.6	4.3	x	x	1.4	x	-2	-3
CC(C)C(=O)N1CCN(c2ccccc2NC(=S)NC(=O)Cc2ccccc2)CC1	-0.2	-8.2	-3.2	3	3.9	4	17	8
CCn1nnnc1SCC(=O)c1ccc(NC(C)=O)cc1	1.4	0.2	4.4	-2	4.9	-11	0	-7
COCCNCCCOc1ccc(Cl)cc1Br	-0.1	6.8	1.0	23	2.6	23	10	-6
Cc1c(NC(=S)NC(=O)C(c2ccccc2)c2ccccc2)cccc1C(=O)O	1.2	-4.5	-13	51	0.2	-3	13	5
Cc1ccc(CNCc2cc(Cl)ccc2O)cc1	-1.0	3.7	x	x	2.3	x	1	-6
O=C(Cn1nnc(-c2ccccc2)n1)NC1CCS(=O)(=O)C1 (configuration not stated)	-0.8	-0.7	3.2	0	-0.3	5	6	1
CN1CCC(=O)N(CCSc2ccc(Br)cc2)CC1	0.2	0.6	-4.9	-20	0.4	6	-3	-3
O=C(Nc1cccc(NS(=O)(=O)c2ccc(S(=O)(=O)NC3CC3)cc2)c1)c1ccccn1	-0.9	8.6	-1.0	-8	1.1	-5	-11	4
Cc1cc(NC(=O)CSc2ccc3nnc(-c4cccc(F)c4)n3n2)no1	-0.7	-3.9	-1.7	-21	-15	-4	-14	x
O=C(Nc1nnc(-c2ccccc2)s1)c1cc(S(=O)(=O)N2CCOCC2)c(Cl)cc1Cl	-0.9	-2.2	-2.1	-15	4.9	-6	23	1
COc1ccc(CCNC(=O)CCn2cccc2)cc1OC	0.4	6.4	-3.1	-2	4.8	-6	3	0
COc1ccc(-n2nc(C(=O)NCC(=O)NCCCN3CCN(C)CC3)c3ccccc3c2=O)cc1OC	-0.5	-2.4	4.5	-3	3.0	6	6	-5
Cc1ccc2c(c1)-c1nc3ccccc3cc1C2=NC1CCCCC1	-8.8	0.4	x	x	2.5	x	5	2
COc1ccc(CN(C(=O)c2cccs2)c2ccccc2C(=O)O)cc1	0.1	4.4	-4.0	-3	2.7	-9	7	-15
CC(C)(C)NC(=O)CN(C(=O)CCC(=O)Nc1nccs1)c1ccc(F)cc1	0.0	4.2	-1.7	1	4.0	-4	-6	3
O=C1CN(C(=O)CNC(=O)c2ccccc2Cl)c2ccccc2N1	-0.2	0.6	-4.1	-16	-1.6	2	-1	0
O=C(CSc1nccc(=O)[nH]1)NCc1ccc(Cl)cc1	-0.7	-1.9	-1.8	2	0.8	3	0	-8
CN1C(=S)SC2CS(=O)(=O)CC21 (configuration not stated)	0.1	-0.9	-2.6	-3	0.5	-3	-2	-3
COc1ccc(NCC(=O)Nc2cc(S(=O)(=O)N3CCOCC3)ccc2N2CCOCC2)c(OC)c1	0.1	1.7	-7.3	-12	3.9	4	-1	-1
COC(=O)c1nn(-c2ccc(OC)cc2)c(=O)cc1Oc1ccccc1	-0.4	-3.0	7.2	2	2.3	-10	7	-1
CCOC(=O)C1=C(CNCc2ccccc2Cl)NC(=O)NC1c1cccc([N+](=O)[O-])c1 (configuration not stated)	0.2	-0.4	3.0	10	5.0	14	1	-2
CN(C)c1ccc(N=Nc2ccc(S(N)(=O)=O)cc2)cc1	0.9	1.9	-0.3	-6	4.3	11	-2	-1
CCOC(=O)C(C)Oc1ccc(=O)n(-c2ccccc2)n1 (configuration not stated)	0.0	0.5	0.4	-3	0.5	-9	3	-9
Cn1c(=O)c(/C(N)=N/OC(=O)c2ccccc2)cn(-c2ccccc2)c1=O	-0.2	1.2	5.1	7	3.0	4	0	1
COc1ccc(C[C@@H]2CN3C(=NC[C@@H]3C)N2C[C@H](C)NC(=O)CCC2CCCCC2)cc1	1.3	7.6	1.5	-9	1.1	-10	5	-1
O=c1cc(Nc2ccc3c(c2)OCO3)[nH]c(=O)n1-c1ccc(Br)cc1	-0.1	3.0	2.4	-9	-5.6	46	-5	6
O=C(Nc1ccc(Br)cc1)c1cc(-c2ccc3c(c2)OCO3)on1	0.0	-8.3	3.4	5	-5.2	10	7	-4
CC(=O)OC(C(=O)NC1CCCCC1)c1ccccc1Cl (configuration not stated)	-0.9	6.7	-4.4	-12	1.6	7	-3	-5

3 compounds from above, reduced to Beta cell apopt, RanGTP-Impb inh and T cruzi inh:
| molecule | Beta cell apopt | RanGTP-Impb inh | T cruzi inh |
| --- | --- | --- | --- |
| COC(=O)c1nn(-c2ccc(OC)cc2)c(=O)cc1Oc1ccccc1 | -1 | 7.2 | -10 |
| CCOC(=O)C1=C(CNCc2ccccc2Cl)NC(=O)NC1c1cccc([N+](=O)[O-])c1 (configuration not stated) | -2 | 3.0 | 14 |
| CN(C)c1ccc(N=Nc2ccc(S(N)(=O)=O)cc2)cc1 | -1 | -0.3 | 11 |

Next results
SMILES	A1 inh	LANA-H2A inh	RanGTP-Impb inh	Calb FLC	UCH37 DUB inh	T cruzi inh	Beta2AR agonist	Beta cell apopt
S=C(NCC1CCCO1)c1ccc(Br)cc1 (configuration not stated)	0.8	-5.2	-2.7	1	1.8	-2	7	-9
OCC(C#CCN1CCCCC1)NCc1ccccc1 (configuration not stated)	0.8	-2.9	1.7	6	2.5	-12	-2	x
CC(C)N1C(=O)C(=O)N(CC(=O)N2CCc3ccccc32)C1=O	0.1	6.1	x	x	-1.3	x	-2	3
Cc1ccc(S(=O)(=O)N2CCN(C(=O)CCC(=O)Nc3ccc(F)cc3F)CC2)cc1	0.6	-3.8	x	x	4.9	x	-10	1
Cc1ccc(N(C)S(=O)(=O)c2ccc3[nH]cc(C(=O)NCCCN4CCOCC4)c(=O)c3c2)cc1C	0.4	1.3	-3.5	-1	-1.7	8	10	-1
O=S1(=O)CCC(N=Nc2c(O)n(Cc3ccccc3)c3ccccc23)C1 (configuration not stated)	-0.1	-3.6	0.1	-16	6.4	20	-3	1
COc1ccc(S(=O)(=O)Nc2ccccc2C(=O)NCc2ccco2)cc1	-1.1	4.2	5.7	4	-12	4	0	-2
CCOC(=O)N1CCN(Cc2nc3cc(NC(=O)c4ccco4)ccc3n2C)CC1	-0.1	-10.0	0.6	-7	5.1	-8	-12	5
CCc1ccc(NC(=O)Nc2c(C)n(C)n(-c3ccccc3)c2=O)cc1	2.1	1.0	1.0	-5	3.5	-4	0	0
CC(C)C[C@H](NC(=O)c1nc[nH]c1C(=O)N1CCN(c2ccccc2)CC1)C(=O)OC(C)(C)C	-1.5	-2.0	-0.7	-5	1.2	-2	0	-3
CC(C)OC(=O)C1C2C=CC3(CN(CC4CCCO4)C(=O)C13)O2 (configuration not stated)	-2.8	5.1	1.7	-7	0.1	6	5	0
COc1ccc2[nH]c(C(=O)O)c(NS(=O)(=O)c3ccc(Cl)s3)c2c1	-1.5	-2.1	4.6	1	7.5	-3	2	-1
Cc1[nH]c2ccc(F)cc2c(=O)c1SC(F)(F)C(F)C(F)(F)F (configuration not stated)	0.1	2.9	-4.6	29	2.5	0	-6	2
CCC(C)c1ccc(NC(=O)C2CC3CCC2C3)cc1 (configuration not stated)	-0.7	-2.1	1.5	-16	0.1	31	2	5
CN(C)C(=O)NC(Nc1ccc(Cl)cc1Cl)C(Cl)(Cl)Cl (configuration not stated)	0.3	-5.4	-2.9	3	1.1	18	5	10
CC(C)[C@H](NC(=O)NC1CCCc2ccccc21)C(=O)O (some centres not stated)	-0.1	3.0	-1.2	28	1.6	-2	0	x
CN(C(=O)COC(=O)c1c2c(nc3ccccc13)CCCC2)c1c(N)n(Cc2ccccc2)c(=O)[nH]c1=O	0.6	5.6	1.8	-5	-0.1	15	2	5
COC(=O)c1ccc(COC(=O)C2CCN(S(=O)(=O)c3ccccc3C(=O)OC)CC2)cc1	-0.5	6.3	x	x	1.0	x	-3	-3
Clc1ccccc1CN(Cc1ccccc1)c1ncnc2nc[nH]c12	3.1	-3.5	1.2	6	4.1	6	2	-3
Nc1nc(SCc2ccc(Cl)cc2)ns1	0.9	1.6	-4.9	-6	-0.7	-12	1	-8
Cc1cc(=O)oc2cc(OCC(=O)OCC(=O)N(C)C3CCS(=O)(=O)C3)ccc12 (configuration not stated)	0.8	4.8	-2.0	0	-14	-9	-5	0

Compound activity from PubChem.
